Screening results from PubChem.
ClpP mod: qHTS Assay for Activators of ClpP; AID 651965, 2013; ATP-dependent Clp protease proteolytic subunit (Bacillus subtilis (strain 168)), P80244; Potency, µM (series often up to 57.5 µM), inactives show at the top dose activity change, negative = active; 340,000 tested, 1.9% active; purified B. subtilis ClpP, FRET peptide cleavage, 20 min; active = well fitted falling curve with a large enough effect; inconclusive = small, poorly fitted or top-dose-only effect; inactive = no such curve, though single readings can be large or run the other way; also: potency is read from the fitted curve at half-maximal effect; the source files actives as falling curves though it sought activators and does not explain the sign; nearly all actives have a fitted effect of over 65% in size; many hits overshoot -100%
Target sequence (P80244 whole entry, looked up): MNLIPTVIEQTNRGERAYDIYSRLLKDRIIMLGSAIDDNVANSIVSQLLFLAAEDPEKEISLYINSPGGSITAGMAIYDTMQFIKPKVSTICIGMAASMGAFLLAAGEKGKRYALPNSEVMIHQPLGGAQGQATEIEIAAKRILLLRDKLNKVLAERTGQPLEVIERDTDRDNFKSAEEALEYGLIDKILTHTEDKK
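ClpP 10 microg/mL final, pH 8 Tris/KCl buffer with BSA, glycerol, Tween-20; compound pinned in; FRET-FV substrate; RT 20 min; Ex320/Em430; ΔFRET vs ADEP 5.8 microM, DMSO, no enzyme.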
gsp antagonist: gsp mutant antagonism | 340,000 tested, 0.4% active | gsp-mutant cells, cAMP HTRF, 30 min; control for the full effect not named in the record | Potency, µM (highest dose often 76.9 µM), for inactives: top-dose activity change, negative = inhibition, actives largely listed as inhibitors; active = falling curve of any shape with a large fitted effect; inconclusive = falling curve, mostly with a smaller effect; inactive = flat or rising curve; cell line not stated here;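 also: intracellular cAMP measured with PDE inhibitor Ro 20-1724 present during compound exposure; potency is read from the fitted curve at half-maximal effect; % is scaled to controls: 0 for no effect and ±100 for the full control effect; nearly all actives have a fitted effect of over 65% in size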
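Cells in G418 medium, seeded 16-24 h, 37C; buffer exchange to DPBS + 1 mM CaCl2, 0.5 mM MgCl2, 0.05% BSA; cpds in DMSO + […] (300 uM stock), 30 min 37C; HTRF cAMP detection.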
gsp agonist: agonists of gsp mutant (McCune-Albright syndrome); gsp mutant cells, cAMP HTRF, 30 min; control for the full effect not named in the record; Potency, µM (series often up to 76.9 µM), for the others: at the highest dose activation (cAMP increase), hits mostly activators; 340,000 tested, 0.13% active; active = well fitted activation curve with a large enough effect; inconclusive = small, poorly fitted or top-dose-only effect, or another doubt; inactive = no such curve, though single readings can be large or run the other way; cell line not stated here;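 also: phosphodiesterase inhibitor Ro 20-1724 added with compounds to block cAMP breakdown; potency is read from the fitted curve at half-maximal effect; nearly all actives have a fitted effect of over 60% in size; about a fifth of the inactives were tested at one dose only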
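Cells stably selected in G418 were plated at 2000/well, grown 16-24 hr, then given compounds in DMSO with the PDE inhibitor […] (300 uM solution added) for 30 min at 37C; cAMP was read by HTRF.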
TRPV1 PAM: human TRPV1 potentiation; potentiation, % at 8.33 µM; AID 540277; TRPV1-expressing cells, Fluo-8 calcium influx, capsaicin EC20 potentiation; host cell line not named in the record; control for the full effect not named in the record; 320,000 tested, 0.02% active; active means potentiation above 80%; inconclusive means 30% to 80%; inactive means below 30%; also: 0% is about no effect
Target sequence (Q8NER1 whole entry, looked up): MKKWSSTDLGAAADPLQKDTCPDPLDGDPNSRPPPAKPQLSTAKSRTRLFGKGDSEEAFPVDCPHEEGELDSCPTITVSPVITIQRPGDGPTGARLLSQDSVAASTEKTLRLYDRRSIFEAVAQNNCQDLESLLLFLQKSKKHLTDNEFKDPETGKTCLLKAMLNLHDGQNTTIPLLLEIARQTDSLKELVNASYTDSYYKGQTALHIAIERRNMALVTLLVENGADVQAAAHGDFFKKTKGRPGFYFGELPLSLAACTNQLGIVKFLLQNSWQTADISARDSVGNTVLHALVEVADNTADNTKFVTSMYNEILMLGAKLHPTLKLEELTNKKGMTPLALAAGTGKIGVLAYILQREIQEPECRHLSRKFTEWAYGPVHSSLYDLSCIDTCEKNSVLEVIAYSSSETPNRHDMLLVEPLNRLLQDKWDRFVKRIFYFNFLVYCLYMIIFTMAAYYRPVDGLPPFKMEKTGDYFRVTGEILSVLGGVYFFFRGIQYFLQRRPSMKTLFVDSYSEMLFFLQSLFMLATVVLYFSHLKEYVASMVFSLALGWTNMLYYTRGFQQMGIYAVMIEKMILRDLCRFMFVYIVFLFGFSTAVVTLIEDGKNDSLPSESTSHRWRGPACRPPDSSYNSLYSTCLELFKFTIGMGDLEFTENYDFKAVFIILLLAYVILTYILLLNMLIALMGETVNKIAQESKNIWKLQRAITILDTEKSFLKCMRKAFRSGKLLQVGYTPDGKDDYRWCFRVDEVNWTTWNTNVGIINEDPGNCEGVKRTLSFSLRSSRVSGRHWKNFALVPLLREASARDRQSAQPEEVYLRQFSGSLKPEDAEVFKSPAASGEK
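Cells expressing TRPV1 were dye-loaded with Fluo-8 and read kinetically: 10 s baseline, 3 min after compound (agonist portion), then 2 min after EC20 capsaicin (allosteric enhancer portion). Calcium-bound dye fluorescence at 480/520 nm.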
CtBP-E1A blk: CtBP/E1A binding inhibition; AlphaScreen GST-E1A/His-CtBP binding, 1536-well; hits give low values; control for the full effect not named in the record; activity change, % (test concentration not listed); 340,000 tested, 0.49% active; in the data active means activity change below about -65%; inconclusive means about -30% to -65%; inactive means above about -30%; also: % is scaled to controls: 0 for no effect and ±100 for the full control effect; compound concentration not given in the record
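Steps: dispense buffer (Tris pH 8.0, NaCl 300 mM, TCEP 1 mM, BSA, Tween 20); add 5X protein mix (GST-E1A, His-CtBP, 125 nM each); pin 23 nL compound; 2 h at 37 °C, dark; add 5X beads (50 ug/mL); 1 h; read.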
Menin-MLL FL inh: displaces fluorescein MLL peptide from human menin; Fluorescence polarization, fluorescein-MLL peptide displacement from menin; FP activity change, % at 61.4 µM; 290,000 tested, under 10 active; inconclusive = falling polarisation curve, or a change in total fluorescence; inactive = total fluorescence flat and polarisation flat or rising; no compound was filed as active; the % refers to the polarisation; negative = inhibition;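 also: % of control where 0% means no effect; inhibitors lower the polarisation; unlabelled MLL peptide was the positive control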
Sfp inh: inhibitors of Bacillus subtilis Sfp phosphopantetheinyl transferase; Potency, µM, inactives show max response, negative = inhibition, actives largely listed as inhibitors; Biochemical Sfp PPTase activity, qHTS; 310,000 tested, 3.5% active; AID 1490; Q9F4F7; active = well fitted inhibition curve with a large enough effect; inconclusive = small, poorly fitted or top-dose-only effect, or another doubt; inactive = no such curve, though single readings can be large or run the other way;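 also: the enzyme is Sfp with the accession as filed and its product quenches rhodamine fluorescence; potency is read from the fitted curve at half-maximal effect; 0% = enzyme reaction without inhibitor and -100% = no enzyme wells; top concentration of the series not given in the record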
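Compounds were incubated with enzyme (final 15 nM) for 15 min at room temperature before substrate addition started the reaction. Fluorescence at 525 nm excitation, 598 nm emission was recorded immediately and after 30 minutes.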
* = called active by the depositor; ? = inconclusive; nt = not tested or not shown; & = joins results of further samples; [ ] = another dose, or the depositor's remark.

SMILES	ClpP mod	gsp antagonist	gsp agonist	TRPV1 PAM	CtBP-E1A blk	Menin-MLL FL inh	Sfp inh
O=C1CCC(C(=O)N2CCSCC2)CN1Cc1cccc(C(F)(F)F)c1 (stereo not given)	1.1%	7%	-26%[15.4 µM]	-28	2	nt	3%
COc1ccc(CN(CCC(C)C)S(=O)(=O)c2ccccc2Br)cc1	-4.5%	-2%	nt	nt	-3	nt	nt
CCN1CCN(c2cc(C)c3cc(NC(=S)N4CC(C)CC(C)C4)ccc3n2)CC1 (stereo not given)	nt	1%	11%[15.4 µM]	-4	-7	8.8	0%
CCOC(=O)C1=C(NC(=S)NC(=O)c2ccccc2)c2ccccc2CC1(C)CC (stereo not given)	-26%	-7%	11%	9	0	-2.1	8%
COc1ccc(N2CCN(C(=O)CCCn3c(=O)c4cccn4c4cccnc43)CC2)cc1	-5.3%	-13%	?	-6	-25	nt	7%
CCCn1nc(NS(=O)(=O)c2ccccc2[N+](=O)[O-])c2cc3ccccc3nc21	-2.1%	?	-31%[inhibitor]	?	-4	nt	15%
CC(=O)c1cccc(S(=O)(=O)NC2CC2)c1	-2.1%	4%	-10%	2	4	-2.0	3%
O=C(COc1ccc(Cl)cc1Br)N1CCN(c2ncccn2)CC1	-11%	-19%	-16%	-6	4	nt	nt
Nc1ccc(Nc2ccccc2)cc1	0.3%	-16%	4%	-2	3	1.9	56µM*
CC(=O)N(C1=C(Cl)C(=O)c2ccccc2C1=O)C1CCCCC1	0.2%	?	28%[15.4 µM]	4	0	0.3	0.79µM*
COC(=O)[C@@]1(Cc2ccccc2)[C@H]2c3cc(C(=O)N4CCCC4)n(Cc4ccsc4Br)c3C[C@H]2CN1C(=O)c1ccccc1	nt	nt	nt	8	nt	-0.4&9.9	-2%&4%
C=CCn1c(SC)nccc1=O	nt	8%	?	nt	2	nt	nt
Cc1nc(NC(=O)/C=C/c2ccccc2)sc1C(=O)N(C)C	-2.9%	6%	-43%[inhibitor]	4	-7	6.4	2%
O=C(O)C(C(O)c1ccc([N+](=O)[O-])cc1)[n+]1ccccc1 (stereo not given)	0.1%	5%	nt	?	5	nt	nt
CCOc1ccc(/C=C/C(=O)c2c(O)c3ccccc3oc2=O)cc1	-9.6%	-1%	-11%	7	?	2.5	12%
CC1CN(C(=O)c2cccn(Cc3c(Cl)cccc3Cl)c2=O)CC(C)O1 (stereo not given)	-4.2%	10%	-32%[inhibitor]	5	10	-0.3	17%
CCC(c1nnnn1Cc1ccccc1)N1CCN(c2ccccc2)CC1 (stereo not given)	-2.1%	-15%	-8%[15.4 µM]	5	-12	-0.1	-5%
CC1CCCCN1C(=O)c1cnn2c(C(F)(F)F)cc(-c3ccco3)nc12 (stereo not given)	-10%	2%	19%	-7	13	?	8%
COCCn1c(SCC(=O)Nc2ccc(S(=O)(=O)N(C)C)cc2)nc2ccccc21	0.3%	-22%	-41%[inhibitor]	1	1	-0.6	8%
NC(=O)c1csc(-c2ccncc2)n1	-7.7%	5%	-8%	-9	-13	2.1	5%
COc1c(F)cccc1C1=CC(=O)C[C@H](c2ccc(F)cc2)C1	0.3%	nt	10%	nt	2	nt	nt
CC(=O)COc1cc2c(-c3cc4ccccc4o3)cc(=O)oc2cc1C	-2.3%	-13%	-9%	-1	23	2.1	8%
Cc1cc(C)cc(-n2ncc3c2CCCC3NC(=O)c2ccccc2N2CCOCC2)c1 (stereo not given)	-3.3%	-29%	2%	-2	-2	-3.7	1%
CC(C)CCNC(=O)C(c1ccco1)N(CC1CCCO1)C(=O)Cn1nnc2ccccc21 (stereo not given)	-0.5%	2%	?	-2	5	6.4	16%
CCSc1nnc(NC(=O)CSc2nc3c(cc2C#N)CCCC3)s1	3.5%	4%	6%	4	7	6.5	?
Cc1cc(N2CCN(c3ccccc3)CC2)nc(-c2ccccc2)n1	-4.0%	-1%	-7%	10	-13	0.1	?
COc1cccc(NC(=O)N2CCCC2C(=O)NCC(C)C)c1 (stereo not given)	-0.2%	23%	20%	6	4	-1.8	19%
O=C(Cn1c(=O)oc2ccccc21)Nc1cccc(Cl)c1	1.5%	11%	5%	-6	2	-0.4	12%
CSc1nsc(SCC(=O)Nc2ccc(OC(C)=O)cc2)n1	nt	-1%	19%	-15	1	6.0	-12%
C[C@H](OC(=O)NCc1ccc(C(F)(F)F)cc1)[C@@H]1O[C@@]2(C)CCC[C@@H]1O2	0.2%	3%	nt	17	5	nt	nt
O=C(Cn1cc(C(F)(F)F)cc(Cl)c1=O)NCc1ccc(Cl)cc1Cl	nt	8%	-12%	1	2	-2.8	9%
c1cnc(Sc2ccc3nnnn3n2)nc1	0.2%	-3%	28%	6	0	-0.9	0%
Brc1ccc(NCc2nnc3n2CCCCC3)cc1	0.9%	5%	-46%[inhibitor]	9	7	3.0	-2%
O=C1NN(c2ccccc2)C(=O)/C1=C\c1ccccc1	nt	-5%	11%	-6	0	-1.9	-25%
Cc1ccc(C(=O)/C=C/C(=O)c2ccc(C)cc2)cc1	nt	2%	4%[15.4 µM]	26	-13	2.4	3.2µM*
Cn1c(N)c(C(=O)COC(=O)COc2ccc(Br)cc2)c(=O)n(C)c1=O	-0.4%	-16%	37%	6	-7	nt	nt

Reformatted bar-delimited: part of the list above
molecule | ClpP mod | gsp antagonist | gsp agonist | TRPV1 PAM | CtBP-E1A blk | Menin-MLL FL inh | Sfp inh
Cc1cc(N2CCN(c3ccccc3)CC2)nc(-c2ccccc2)n1 | -4.0% | -1% | -7% | 10 | -13 | 0.1 | ?
COc1cccc(NC(=O)N2CCCC2C(=O)NCC(C)C)c1 (stereo not given) | -0.2% | 23% | 20% | 6 | 4 | -1.8 | 19%

The list continues.
SMILES	ClpP mod	gsp antagonist	gsp agonist	TRPV1 PAM	CtBP-E1A blk	Menin-MLL FL inh	Sfp inh
Cc1c(C)c2ccc(OCC(=O)NC(Cc3c[nH]c4ccc(O)cc34)C(=O)O)c(C)c2oc1=O (stereo not given)	-14%	-2%	nt	-12	-9	-4.8	6%
CC1Cc2ccccc2N1C(=O)CN1CCC(C(N)=O)CC1 (stereo not given)	-0.2%	9%	-20%[15.4 µM]	15	-2	-0.4	-23%
CC(C)[C@H](NC(=O)c1nn(Cc2ccccc2)c(=O)c2ccccc12)C(=O)O	nt	-7%	26%	7	-3	0.7	9%
C[C@H]1CN=C(N(C)C)N1CCCCc1ccccc1	-2.8%	5%	nt	?	0	nt	nt
Cn1c(=O)c2c(nc(CN3CCC(C(N)=O)CC3)n2CCCc2ccccc2)n(C)c1=O	0.6%	-11%	-3%	7	-17	1.0	-2%
Cc1ccccc1C(=O)N1CCN(c2ccc(NC(=O)c3cccs3)cc2)CC1	1.4%	-16%	-13%	-8	12	0.0	13%
C/C(=N\NC(=O)c1c(C)nc2ccccn12)c1ccco1	nt	9%	8%[15.4 µM]	9	4	4.0	-7%
O=C(c1cnc(-c2ccc(Cl)cc2)s1)c1ccc(Cl)cc1Cl	-5.1%	17%	8%	1	-7	-1.2	-4%
C=CCc1c(C)[nH]c(=O)[nH]c1=O	nt	1%	-6%	-1	15	-1.0	18%
O=C(c1cccc(NS(=O)(=O)c2cccc(C(F)(F)F)c2)c1)N1CCOCC1	-1.6%	-3%	-29%	-2	-9	2.4	-5%
Cc1ccc(S(=O)(=O)N(C)CC(=O)Nc2ccccc2)cc1	-1.9%	1%	-19%	-11	-22	2.2	15%
CC/C(=N\NC(=O)c1cccnc1)c1ccc2c(c1)OCCO2	nt	6%	3%[15.4 µM]	8	13	-0.1	-24%
CCn1cc(/C=C(\NC(=O)c2ccc(OC)c(OC)c2)C(=O)NCCCN2CCOCC2)c2ccccc21	-0.8%	-4%	?	18	nt	-4.3	-5%
C[C@]12C=CC(=O)C=C1CCC1C3CC[C@](O)(C(=O)CO)[C@@]3(C)CC3OC312 (stereo not given in full)	-8.1%	8%	-33%[inhibitor]	17	6	-0.6	5%
CCCc1cc(C(=O)Nc2cc(Cl)ccc2O)no1	nt	-4%	-2%[15.4 µM]	3	2	4.6	16%
Cc1ccccc1NC(=O)CN1C(=O)c2ccccc2C1=O	nt	8%	-6%	0	-15	-4.8	-4%
N#C/C(=N\Nc1ccc(Cl)cc1)C(N)=S	nt	?	-15%	5	-8	3.4	-13%
Cc1ccc(/C=N/NC(=O)CN2CCN(Cc3ccccc3)CC2)s1	nt	-8%	?	nt	-10	-1.3	13%
COc1cccc2cc(-c3cc(=O)oc4cc(C)c(OCC(C)=O)cc34)oc12	-1.8%	6%	2%	2	-8	4.6	10%
CC(O)(Cc1cccnc1)c1cccs1 (stereo not given)	-0.9%	4%	-27%	nt	8	nt	nt
O=C(NCCC1=CCCCC1)C1CCN(S(=O)(=O)c2cccc(C(F)(F)F)c2)CC1	0.3%	-12%	20%	-4	nt	nt	nt
O=C(CC(=O)N/N=C\c1c(Cl)cccc1Cl)NCc1ccccc1	-1.0%	-14%	-6%	2	-13	5.2	12%
O=C(Nc1cccc(Cl)c1)c1ccc(=O)[nH]n1	-2.3%	-16%	31%[15.4 µM]	-25	-2	2.2	1%
CCOC(=O)N1CCN(c2nc(-c3cccs3)nc3ccccc23)CC1	nt	?	?	9	-1	-15	?
Cc1nnc(C)n1/N=C/c1ccccc1	-1.7%	-1%	-35%[inhibitor]	4	2	1.1	24%
CC(=O)c1cccc(NC(=O)C=C(C)C)c1	-9.4%	2%	-9%	8	-10	1.6	13%
O=C(CSc1nc2ccccc2c(=O)n1-c1ccccc1Cl)NCC1CCCO1 (stereo not given)	-7.5%	2%	-2%	-6	nt	nt	nt

Part of the list above with just Menin-MLL FL inh, ClpP mod and gsp agonist.
compound	Menin-MLL FL inh	ClpP mod	gsp agonist
O=C(CC(=O)N/N=C\c1c(Cl)cccc1Cl)NCc1ccccc1	5.2	-1.0%	-6%
O=C(Nc1cccc(Cl)c1)c1ccc(=O)[nH]n1	2.2	-2.3%	31%[15.4 µM]
CCOC(=O)N1CCN(c2nc(-c3cccs3)nc3ccccc23)CC1	-15	nt	?
Cc1nnc(C)n1/N=C/c1ccccc1	1.1	-1.7%	-35%[inhibitor]
